ALR H2O2 inh: inhibitors of human ALR sulfhydryl oxidase, primary screen, biochemical, H2O2 detection, HRP-luminol luminescence, single point | FAD-linked sulfhydryl oxidase ALR (Homo sapiens), P55789 | purified ALR, DTT oxidation | inhibition, % (concentration not given with the values) | actives 3.8% (n = 290,000) | AID 485317, 2010;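 active = mean and each replicate at 75% or more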;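 also: stock transfer was 7.5 nL into about 7.5 µL; 0% = neutral wells and 100% = wells with inactivated enzyme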
Target sequence (P55789 whole entry, looked up): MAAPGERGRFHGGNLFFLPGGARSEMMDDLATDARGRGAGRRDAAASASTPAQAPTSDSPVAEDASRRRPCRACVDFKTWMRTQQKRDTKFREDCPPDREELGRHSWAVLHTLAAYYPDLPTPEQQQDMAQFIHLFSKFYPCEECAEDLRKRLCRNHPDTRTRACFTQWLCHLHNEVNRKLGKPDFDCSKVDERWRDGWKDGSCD
E coli growth: E. coli growth inhibition, primary screen, OD600 | Escherichia coli growth, 23 h; hits give low values | OD600 absorbance (concentration not given with the values) | actives 0.21% (n = 330,000);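 active = OD600 absorbance below the run mean of sample wells minus 3.6 SD, in any replicate, cut at about 0.56 in these data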;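 also: stock transfer was 300 nL into about 60 µL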
LANA-H2A inh: blockers of LANA interaction with H2A/H2B – biochemical, FP readout, HTS, primary screen. inhibition, % (no concentration beside the values). cell-free LANA-H2A/H2B peptide, fluorescence polarization. Protein LANA1 (Human herpesvirus 8 type P (isolate GK18)), Q9QR71. actives 0.6% (n = 320,000). AID 2629, 2010; in the data active = inhibition mostly above about 10%, no sharp cut-off; inactive = mostly below about 6.7%;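 also: stock transfer was 7.5 nL into about 10 µL; 0% = median of vehicle wells and 100% = median of positive control wells; one replicate is shown; the record names a cut of 25% in any replicate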
FGF22 binding: binders of human FGF22 protein, primary screen, FGF22 synaptogenesis inhibitor project, biophysical, thermal shift, single point | Fibroblast growth factor 22 (Homo sapiens), Q9HCT0 | recombinant FGF22 thermal shift, SYPRO orange fluorescence; percent of sucrose octasulfate shift, DMSO zero | calls only at 9.99 µM | actives 1.5% (n = 340,000) | AID 651658, 2012;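 active = melting point raised past a set limit in the mean and every replicate; three in four hits are not shown here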
UCH37 DUB inh: inhibitors of human UCH37 deubiquitinase, primary screen, biochemical, Ub-AMC cleavage, fluorescence; actives 0.33% (n = 330,000); inhibition, % (no concentration beside the values); AID 588478, 2011; purified proteasome/UCH37;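 active = mean of two replicates above 20%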;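 also: 0% = compound-free wells with enzyme and 100% = wells lacking proteasome; stock transfer was 100 nL into about 20 µL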
Target sequence (Q9Y5K5 whole entry, looked up): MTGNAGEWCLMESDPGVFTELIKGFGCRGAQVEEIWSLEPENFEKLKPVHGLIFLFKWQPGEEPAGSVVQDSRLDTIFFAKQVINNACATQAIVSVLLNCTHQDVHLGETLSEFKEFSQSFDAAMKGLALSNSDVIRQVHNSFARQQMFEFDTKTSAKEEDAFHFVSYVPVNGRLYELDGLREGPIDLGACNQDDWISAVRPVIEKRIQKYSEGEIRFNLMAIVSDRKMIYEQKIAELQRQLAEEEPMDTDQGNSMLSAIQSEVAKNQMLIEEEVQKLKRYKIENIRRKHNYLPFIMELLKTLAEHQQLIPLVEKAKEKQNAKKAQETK
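Signal – fluorescence, ex 355 nm, em 460 nm · System – Proteasome-bound UCH37 · Input – 0.15 nM proteasome as dispensed · Timing – 30 min preincubation with enzyme, 25 min cleavage at room temperature · Read-out basis – percent inhibition of cleavage signal versus uninhibited and no-proteasome wells · Medium – Tris-HCl pH 7.4 with ATP-MgCl2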
Beta2AR agonist: beta2AR agonists driving receptor internalization, primary screen, cell-based, FAP fluorogen, flow cytometry; Beta-2 adrenergic receptor (Homo sapiens), P07550; Am2.2-beta2AR cells; reference of the scale not given here; response, % (test concentration not listed); actives 0.43% (n = 340,000); AID 504454, 2011;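 active = response above a set limit, near 3 SD of response in nonfluorescent compounds, cut at about 42% in these data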;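 also: stock transfer was 100 nL into about 11 µL; a reference agonist was the positive control; negative values mostly stem from fluorescent compounds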
HNF4A DNA FP: change in binding of human HNF4A to DNA, primary screen, biochemical, fluorescence polarization, FITC-DNA | actives 0.3% (n = 360,000) | 1 h | activity change, % at 10 µM; in the data active = activity change above about 30%, passing the limit was not always enough;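 also: controls were the assay level and a saturating level of protein; the project sought stronger binding though the title names inhibitors; some compounds called inactive have numbers as strong as hits; positive values seem to mean higher polarization but the record does not say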
Target sequence (P41235 whole entry, looked up): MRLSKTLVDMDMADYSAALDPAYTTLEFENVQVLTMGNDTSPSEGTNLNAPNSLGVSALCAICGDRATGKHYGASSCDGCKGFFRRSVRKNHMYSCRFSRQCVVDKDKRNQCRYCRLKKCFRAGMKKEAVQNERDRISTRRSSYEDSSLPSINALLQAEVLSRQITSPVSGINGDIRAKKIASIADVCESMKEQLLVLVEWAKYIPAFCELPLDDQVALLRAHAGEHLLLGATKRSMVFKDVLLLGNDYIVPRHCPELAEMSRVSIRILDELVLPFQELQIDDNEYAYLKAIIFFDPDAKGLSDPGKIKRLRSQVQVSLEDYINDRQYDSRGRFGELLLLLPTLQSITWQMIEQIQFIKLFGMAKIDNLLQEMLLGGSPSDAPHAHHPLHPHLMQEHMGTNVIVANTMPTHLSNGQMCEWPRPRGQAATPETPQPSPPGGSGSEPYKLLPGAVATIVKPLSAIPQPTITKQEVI
* = called active by the depositor; i = inactive; x = no result given. Only part of the results is shown. The share of hits here may be higher or lower than overall.

SMILES | ALR H2O2 inh | E coli growth | LANA-H2A inh | FGF22 binding | UCH37 DUB inh | Beta2AR agonist | HNF4A DNA FP
C=CCn1c(SCCN)nnc1-c1cccc(S(=O)(=O)N2CCOCC2)c1 | x | 0.686 | x | i | 2.6 | -0.4 | -0.7
O=C(NCCc1cccs1)C1CC(c2ccccc2[N+](=O)[O-])=NO1 (stereo unspecified) | -18.1 | 0.705 | 2.0 | i | 1.0 | -0.9 | 4.4
Cc1ccc(C(=O)Nc2nc3n(n2)C(c2ccccc2)CC(=O)N3)cc1 (stereo unspecified) | -0.3 | 0.654 | 0.0 | i | 0.1 | -4.4 | 1.0
CCN1CCc2c(OCc3ccccc3)cccc2C1=O | -0.8 | 0.729 | 1.4 | x | 2.6 | -5.9 | -0.9
Cc1ccc(NC(=S)N2CCN(c3ccccn3)CC2)cc1C | -29.8 | 0.659 | 3.4 | i | 3.7 | -2.3 | -5.4
COc1cccc(CN(C)C(=O)CSCC(=O)Nc2cccc(C)c2)c1OC | 91.7* | 0.662 | 8.2 | i | 2.2 | -4.0 | -5.8
O=C(NCCc1ccccc1F)c1ccc2c(c1)OCCO2 | -0.9 | x | 4.3 | i | x | -2.2 | -1.1
CC(=O)c1cccc(NC(=O)C2CC(=O)N(Cc3ccccc3)C2)c1 (stereo unspecified) | 9.6 | 0.735 | -3.0 | x | 0.0 | 1.1 | -0.9
NC(=O)N/N=C/c1coc2ccc(O)cc2c1=O | 11.4 | x | 1.9 | i | x | 2.0 | -1.7
COc1ccccc1NC(=O)c1ccc2c(c1)CCN2S(C)(=O)=O | 36.7 | 0.648 | 5.8 | i | 2.4 | -5.8 | -3.4
COc1ccccc1-c1nnc(SCC(=O)NCc2ccco2)n1N | -4.3 | 0.681 | -0.3 | i | -3.5 | 11.4 | 1.5
Cn1cc(C(=O)c2cccc(Cl)c2)cc1/C=N\O | 0.2 | x | -2.7 | i | x | -3.3 | -0.4
Cc1nc(N(C)C)ncc1C(=O)O | x | 0.68 | -0.5 | x | -9.5 | 4.8 | 1.2
COc1ccccc1N1CCN(C(=O)c2oc3c(c2C)C(=O)CC(C)(C)C3)CC1 | 15.1 | 0.706 | 0.9 | i | 2.2 | 2.3 | -3.2
N#C/C(=C\c1ccc(OC(=O)c2ccccn2)cc1)C(N)=O | 73.5 | 0.661 | 1.3 | x | 10.6 | -3.6 | -0.9
CCOc1ccc(S(=O)(=O)NCC(c2ccc3c(c2)OCO3)N2CCN(C)CC2)cc1 (stereo unspecified) | -7.9 | 0.65 | -0.1 | i | 1.0 | -16.8 | -2.3
Cc1ccc(NC(=O)c2cccc3c2C(=O)N(C2CCCCC2)C3)c(Cl)c1 | -3.4 | 0.679 | -5.0 | x | 0.8 | -5.6 | -1.4
CSCC[C@H](NC(=O)C1CCC(CNC(=O)[C@@H]2CCCN2C(=O)OC(C)(C)C)CC1)C(=O)O (stereo partly specified) | 9.2 | 0.651 | 0.4 | i | 0.1 | 4.5 | -1.6
COc1ccc(C(=O)NC(=S)Nc2cccnc2)cc1Cl | -21.5 | 0.667 | 5.7 | i | 1.7 | 0.5 | -3.3
COc1ccc(-c2nnc3n(CCc4ccccc4)c(=O)c4ccccc4n23)cc1OC | -1.0 | x | -0.6 | x | x | -11.1 | 0.3
CCOC(=O)c1c(C)n(C)c2ccc(OCC(O)CN3CCCCCC3)cc12 (stereo unspecified) | -5.8 | 0.766 | -5.8 | i | 4.1 | 2.8 | -0.1
COc1ccccc1NC(=O)Cn1cnc2c1c(=O)n(C)c(=O)n2C | -6.0 | 0.731 | 0.6 | x | -1.6 | -1.4 | -2.3
COc1cccc(NC(=O)CN(C)C(=O)CC2CCCC2)c1 | x | 0.721 | x | i | 1.1 | -4.0 | 5.3
CC1(C)C(C=C(Cl)Cl)C1C(=O)N1CCN(Cc2ccccc2)CC1 (stereo unspecified) | -4.8 | 0.676 | -6.9 | i | 2.1 | -2.8 | -2.8
CC(C)(C)c1cc(NC(=O)NN2CCOCC2)nn1-c1c(Cl)cc(Cl)cc1Cl | -1.1 | 0.645 | -5.1 | i | 2.9 | 7.6 | 0.6

(next part)
SMILES | ALR H2O2 inh | E coli growth | LANA-H2A inh | FGF22 binding | UCH37 DUB inh | Beta2AR agonist | HNF4A DNA FP
COc1cccc(CN2CCN(Cc3ccc4c(NC(C)=O)cccc4n3)CC2CCO)c1 (stereo unspecified) | -3.5 | 0.758 | -1.4 | i | 1.7 | -6.9 | 1.3
CSc1nc(C)c(Oc2ccccc2)c(=O)n1C | -2.7 | 0.703 | -2.4 | x | -0.8 | 0.0 | -0.2
COc1cccc2c1C(=O)c1c(O)c3c(c(O)c1C2=O)CC(O)(C(C)=NNC(=O)c1ccc(Cl)c(Cl)c1)CC3OC1CC(N)C(O)C(C)O1 (stereo unspecified) | x | x | x | i | x | -430.6 | -3.5
Cc1nc(CS(=O)(=O)c2ccc(Cl)cc2)cc(Sc2ccc(Cl)cc2)n1 | -3.0 | 0.718 | -4.2 | x | 2.4 | -0.4 | 1.4
O=C(Nc1cccc2ccccc12)N1CC=CCC1 | -12.7 | 0.667 | 2.6 | x | -0.6 | -0.5 | -1.9
N#Cc1c(C(F)(F)F)cc(-c2ccccc2)nc1SCc1nc(N)nc(N2CCOCC2)n1 | 6.7 | 0.651 | 2.8 | x | 2.6 | -177.3 | 29.0
CC(=O)N1CCOc2ccc(S(=O)(=O)N3CCC(C(=O)Nc4cc(C)ccc4C)CC3)cc21 | -4.5 | 0.631 | -6.5 | i | 3.7 | -3.4 | 4.2
CNc1oc(-c2ccco2)nc1C#N | 52.7 | 0.723 | 0.8 | x | -12.8 | -10.6 | -0.7
O=C(Nc1nncs1)C1CC(=O)N(CCc2ccc(F)cc2)C1 (stereo unspecified) | 14.6 | 0.68 | 3.5 | i | -0.1 | 4.6 | 2.6
CCOc1ccccc1NC(=O)NC(=O)N(C)S(=O)(=O)c1ccc(C)cc1 | x | 0.68 | -0.5 | i | 3.1 | -6.5 | -2.0
O=C(c1cc(-c2cccs2)on1)N1CCN(C(c2ccccc2)c2ccccc2)CC1 | -3.0 | 0.693 | 1.1 | x | 1.4 | 4.9 | -0.1
COc1ccc(-n2c(Cn3c(=O)sc4ccccc43)nnc2SCC(N)=O)cc1 | x | 0.666 | 2.2 | i | 1.5 | 1.3 | -1.1
NC(=O)CN1CCN(Cc2ccc3c(c2)OCO3)CC1 | x | 0.637 | 4.0 | i | 0.2 | -4.3 | -2.6
CC[C@H](C)[C@@H](NC(=O)O[C@@H]1C(=O)c2cc(Br)ccc2O[C@H]1c1cccc(OC)c1)C(=O)OC | 3.2 | 0.828 | -0.7 | x | -2.2 | x | x
COc1ccccc1-c1nc2cc3ccccc3cc2nc1-c1ccccc1 | -10.9 | 0.75 | -0.3 | i | 1.7 | 9.6 | 1.5
Nc1c(C(=O)O)cnc2c(-c3ccc(Cl)cc3)cnn12 | 10.6 | 0.711 | 6.3 | i | -13.7 | -1.5 | -2.5
COc1ccccc1-n1nnnc1SCC(=O)Nc1ccc(C)c(N)c1 | 2.3 | 0.68 | -4.1 | i | 1.3 | 7.0 | 2.3
CC(C)c1nc2c(s1)CCc1onc(-c3cccc([N+](=O)[O-])c3)c1-2 | x | 0.728 | -3.4 | i | 1.7 | -0.6 | -0.7
CC(C)Sc1nc2c(c(=O)[nH]c(=O)n2C)n1CC(O)COc1ccccc1 (stereo unspecified) | -0.1 | 0.699 | 6.7 | i | 3.5 | 20.1 | 0.4
CCOC(=O)N1CCN(C(=O)CNC(=O)c2ccc(Br)o2)CC1 | -0.8 | 0.631 | 7.0 | i | 3.0 | -3.2 | -0.9
C=CCn1c(SCC(=O)Nc2ccc3c(c2)OCCO3)nnc1-c1ccccn1 | -8.2 | 0.655 | 0.6 | x | 2.8 | -3.4 | -2.9
c1coc(CNc2nc(N3CCCCC3)nc3ccccc23)c1 | -15.9 | 0.641 | 0.0 | x | -12.8 | -7.6 | 3.5
CCOC(=O)CSc1nnc(CNc2ccc(F)cc2)o1 | -18.5 | 0.692 | -1.9 | x | 3.1 | 9.2 | 0.1
CCC1(c2ccccc2)NC(=O)N(CC(=O)NCc2ccc(F)cc2)C1=O (stereo unspecified) | x | 0.71 | 3.4 | i | 3.5 | 2.8 | 0.1
CCN1CCN(C(c2cccc(OC)c2)c2sc3nc(C)nn3c2O)CC1 (stereo unspecified) | 0.0 | 0.69 | 0.0 | x | -0.3 | -5.2 | -0.2

(cont.)
SMILES | ALR H2O2 inh | E coli growth | LANA-H2A inh | FGF22 binding | UCH37 DUB inh | Beta2AR agonist | HNF4A DNA FP
O=S(=O)(Nc1nc2c(s1)CCCC2)c1ccc(Br)cc1 | -1.7 | 0.685 | 6.9 | x | 2.0 | -14.1 | 1.1
O=C1Nc2ccc3c(c2C1=Cc1cc2c(cc1Br)OCO2)OCO3 | x | x | x | i | x | 5.3 | -3.7
Cc1cc(C)c2cc3c(N)c(C(=O)N4CCc5ccccc5C4)sc3nc2c1 | -1.5 | 0.665 | 3.0 | i | -12.1 | -8.2 | 9.4
COc1cc(CCN2C(=O)N[C@@H](CCc3ccccc3)C(C(C)=O)=C2C)cc(OC)c1OC | -7.7 | x | -0.3 | x | 3.4 | x | x
N#Cc1ccc(/C=N/NC(=S)Nc2ccc(S(=O)(=O)N3CCOCC3)cc2)cc1 | 1.0 | x | 3.2 | i | x | -5.7 | 2.3
CCCCc1ccc(NC(=O)N[C@@H](C)C(=O)O)cc1 | x | x | 2.9 | i | x | 9.8 | 2.1
O=C(O)c1cccc(CN2C(=O)CSC2=O)c1 | -1.0 | 0.743 | -1.2 | x | 1.0 | -2.1 | -2.7
CCOC(=O)n1c(=O)n(Cc2ccccc2Cl)c2ccccc21 | x | 0.69 | 6.5 | x | 4.2 | -3.5 | -3.5
COc1cccc(N/C(SCc2ccccc2F)=C(/C#N)C(=O)NCc2cccs2)c1 | x | 0.708 | x | x | 2.8 | -1.8 | 1.1
O=C(Nc1ccc(SC(F)F)cc1)c1cccc2nc3ccccc3nc12 | -1.6 | 0.754 | -0.9 | x | 0.1 | 35.9 | -2.0
COc1ccccc1CNC(=O)C(CC(C)C)NS(=O)(=O)c1ccc2c(c1)oc(=O)n2C (stereo unspecified) | -5.9 | 0.709 | 0.1 | i | 6.7 | -13.7 | -4.2
N#Cc1ccc(COn2nnc3ccccc32)cc1 | -14.6 | 0.679 | 2.2 | i | -1.6 | 1.0 | 0.9
O=C(NCCc1ccccc1Cl)C1CC(=O)N(C2CCCCC2)C1 (stereo unspecified) | -0.7 | 0.662 | 1.2 | i | 3.2 | 4.5 | -3.1
Cc1cccc(Nc2nnc(SC/C(O)=C(\C#N)c3nc4ccccc4[nH]3)s2)c1 | -0.3 | 0.677 | -0.6 | x | -10.8 | -3.6 | 7.6
CCOc1cc(N2CCOCC2)c(OCC)cc1NC(=O)c1cc(-c2ccco2)nc2ccccc12 | -40.3 | 0.7 | -6.4 | i | 10.7 | 23.6 | -3.2
Cc1ccc(S(=O)(=O)N2CCCSCC2)cc1 | 5.5 | 0.737 | -2.3 | x | -1.2 | -10.8 | 3.2

Bioassay records deposited in PubChem by several laboratories.
